# Ecoli growth = E. coli growth inhibition. OD600 absorbance (test concentration not listed). AID 1053175. Escherichia coli growth, OD600, 23 h; stronger effect = lower value. actives 0.21% (n = 330,000);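 active = OD600 absorbance below the run mean of sample wells minus 3.6 SD, in any replicate, cut at about 0.56 in these data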;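 also: stock transfer was 300 nL into about 60 µL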
# A1 inh = inhibitors of the anti-apoptotic protein A1, read as caspase activation. caspase activation, % (no concentration beside the values). MEF A1-2A-BIM cells, Caspase-Glo 3/7 luminescence, 3 h; percent of clofoctol response, vehicle zero. AID 2462. actives 0.066% (n = 330,000);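 active = over half of replicate activation scores above 10%, or exactly half above 10 with the replicate mean above 10; inconclusive = replicate mean below 10 yet half the replicates above 10; inactive = over half of replicates below 10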;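 also: wells of about 30 µL received 50 nL stock; many hits fall short of the cut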
# Ecoli rRNA inh = selective bacterial rRNA inhibition in E. coli. E. coli WT GFP vs humanized-ribosome RFP mutants, fluorescence, 24 h; stronger effect = lower value; DMSO median 0, no signal -100. GFP signal change (wild-type ribosome), % (concentration not given with the values). actives 1.6% (n = 350,000). AID 720706;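 active = significant combined selectivity score with lowered wild-type GFP, culture density cut under 30%, mutant RFP and density less affected; inactive = any of these conditions unmet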; also: one replicate is shown; some compounds called inactive have numbers as strong as hits
# Beta apoptosis = beta cell apoptosis inhibition. INS-1E cytokine-induced death, ATP luminescence, 48 h; percent of positive-control rescue, neutral wells zero. protection from apoptosis, % (concentration not given with the values). actives 0.8% (n = 300,000). AID 435005;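 active = all replicates at 75% or more, or half of them and the mean; inconclusive = half reach 75% but not the mean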;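 also: 0% = cytokine-treated negative control wells and 100% = positive control rescue; higher means more ATP so stronger rescue from cytokine killing; wells of about 40 µL received 100 nL stock; the first replicate is given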
# T cruzi repl = blocks replication of Trypanosoma cruzi; T. cruzi beta-gal in NIH3T3, luminescence, 90 h; inhibition, % (concentration not given with the values); actives 1.4% (n = 300,000); AID 1885;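 active = mean inhibition across valid replicates above about 55%, limit read from the data; inconclusive = mean below that limit but half or more replicates reach it; inactive = mean below it, under half of replicates reach it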;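 also: signal also drops with host cell toxicity which is not excluded here; 0% = plate median of DMSO wells and 100% = zero luminescence signal; higher percent means less beta-gal luminescence so fewer parasites; stock transfer was 50 nL into about 50 µL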
# MLL AF4-AF9 inh = blocks AF4 peptide binding to human AF9; actives 0.47% (n = 350,000); AlphaScreen, biotin-AF4 peptide binding to FLAG-AF9; P42568; inhibition, % at 10 µM;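 active = every replicate reaching a set inhibition limit, whatever the replicate mean, cut at about 25% in these data; inconclusive = mean inhibition reaches that limit but some replicates miss it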;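 also: 0% = plate neutral control median and 100% = total signal loss; the record names both 10 and 1 µM as test concentration; the first replicate is given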
# Target sequence (P42568 whole entry, looked up): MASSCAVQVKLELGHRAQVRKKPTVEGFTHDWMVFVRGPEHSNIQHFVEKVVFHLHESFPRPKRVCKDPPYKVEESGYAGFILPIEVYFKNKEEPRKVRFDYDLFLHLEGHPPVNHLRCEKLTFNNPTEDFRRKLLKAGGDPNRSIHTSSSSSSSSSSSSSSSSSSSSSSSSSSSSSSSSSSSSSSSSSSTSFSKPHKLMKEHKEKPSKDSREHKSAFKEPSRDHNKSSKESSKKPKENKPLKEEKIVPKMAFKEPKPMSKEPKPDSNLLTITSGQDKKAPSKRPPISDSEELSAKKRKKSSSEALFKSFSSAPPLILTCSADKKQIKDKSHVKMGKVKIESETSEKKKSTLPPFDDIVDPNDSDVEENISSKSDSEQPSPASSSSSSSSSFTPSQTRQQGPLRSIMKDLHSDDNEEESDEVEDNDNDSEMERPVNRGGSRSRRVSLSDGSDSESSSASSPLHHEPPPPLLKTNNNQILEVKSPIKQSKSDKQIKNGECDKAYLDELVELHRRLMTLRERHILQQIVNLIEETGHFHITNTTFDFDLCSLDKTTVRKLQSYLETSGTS
# FGF22 binding = FGF22 (human) thermal shift binding; Q9HCT0; recombinant FGF22 thermal shift, SYPRO orange fluorescence; percent of sucrose octasulfate shift, DMSO zero; calls only at 9.99 µM; actives 1.5% (n = 340,000);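 active = melting point raised past a set limit in the mean and every replicate; inconclusive = no clear call; three in four hits are not shown here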
# Target sequence (Q9HCT0 whole entry, looked up): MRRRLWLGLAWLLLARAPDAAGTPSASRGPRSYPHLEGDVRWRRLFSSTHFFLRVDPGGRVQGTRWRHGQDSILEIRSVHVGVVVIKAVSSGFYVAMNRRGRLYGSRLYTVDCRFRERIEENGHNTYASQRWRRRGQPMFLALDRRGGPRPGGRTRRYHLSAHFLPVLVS
# UCH37 inh = human UCH37 deubiquitinating enzyme inhibition. Q9Y5K5. purified proteasome/UCH37, Ub-AMC cleavage fluorescence. inhibition, % (no concentration beside the values). actives 0.33% (n = 330,000);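 active = mean of two replicates above 20%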;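 also: 0% = compound-free wells with enzyme and 100% = wells lacking proteasome; stock transfer was 100 nL into about 20 µL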
# Target sequence (Q9Y5K5 whole entry, looked up): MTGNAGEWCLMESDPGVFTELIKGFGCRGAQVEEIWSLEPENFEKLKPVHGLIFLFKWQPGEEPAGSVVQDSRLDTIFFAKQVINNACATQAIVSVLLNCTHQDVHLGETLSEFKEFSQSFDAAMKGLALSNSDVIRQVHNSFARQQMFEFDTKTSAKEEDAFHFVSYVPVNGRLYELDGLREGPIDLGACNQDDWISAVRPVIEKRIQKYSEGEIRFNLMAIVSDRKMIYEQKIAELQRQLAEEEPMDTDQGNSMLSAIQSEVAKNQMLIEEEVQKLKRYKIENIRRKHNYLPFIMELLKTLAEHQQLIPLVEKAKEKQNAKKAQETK
#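 Material: human UCH37 enzyme supplied as purified proteasome complex / Amount: 0.15 nM proteasome as dispensed / Buffer or medium: pH 7.4 Tris-HCl (50 mM) with ovalbumin, ATP-MgCl2, DTT / Times: preincubation 30 min, reaction 25 min, room temperature / Technique: AMC fluorescence from Ub-AMC cleavage, excitation 355 nm, emission 460 nm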
# Ecoli rRNA inh OD600 = second read-out of Ecoli rRNA inh, no call of its own (marks repeat the call); OD600 change, %; measured here: OD600 growth;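 optical density of the mix in the first replicate; 0 = DMSO median and -100 = no signal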
# Ecoli rRNA inh RFP = recorded beside Ecoli rRNA inh, whose call it bears; RFP signal change, %; measured here: RFP humanized mutant strains;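 first replicate; 0 = DMSO median and -100 = no signal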
# An asterisk follows results filed as active; i = inactive; ? = inconclusive; . = no result given; & = joins results of further samples.
SMILES,Ecoli growth,A1 inh,Ecoli rRNA inh,Ecoli rRNA inh OD600,Ecoli rRNA inh RFP,Beta apoptosis,T cruzi repl,MLL AF4-AF9 inh,FGF22 binding,UCH37 inh
COc1ccc(OC)c(C(=O)c2nc3c(n2O)CCCCC3)c1,0.72,0.4,.,.,.,-3,6,.,.,6.1
Cc1cc(Br)c(NC(=O)CCNC(=O)OCc2ccccc2)cc1C,0.64,0.4,3,8,-0.6,3,-8,-2.0,i,0.1
Cc1cc(S(=O)(=O)N2CC(=O)N(CCc3ccccc3)C(=O)C2)ccc1F,0.71,0.3,.,.,.,0,-5,.,.,2.9
O=C1CCCC/C=C\C[C@H](CC(=O)N(CCO)Cc2ccccc2)C(=O)N2CCC[C@@H]2CO1,.,1.2,3,6,-1.4,-6,.,-0.7,i,-3.7
COc1ccc(NC(=O)N2CCCC2C(=O)NCc2ccc(C)cc2)cc1 (stereo not given),0.63,0.5,20,14,2.3,-5,-9,-2.5,i,0.3
COc1ccc(C2=NN(C(=O)CCCC(=O)O)C(c3cn(-c4ccccc4)nc3-c3ccccc3)C2)cc1 (stereo not given),0.67,0.4,10,10,18,3,-1,-7.2,i,2.1
O=C(O)c1cc(NC(=O)c2ccco2)cc(NC(=O)c2ccco2)c1,0.67,0.5,-1,3,1.1,-5,1,-9.0,i,2.8
OCCN1CCN(C2CCC(c3ccc(F)cc3)c3ccc(F)cc32)CC1 (stereo not given),0.64,0.5,.,.,.,22,39,7.9,i,7.7
O=C(CSc1ccc(-c2ccco2)nn1)c1cccc([N+](=O)[O-])c1,.,0.5,9,13,0.6,-15,1,-1.1,i,.
O=C(c1ccc2c(c1)OCCO2)C1CCN(S(=O)(=O)c2ccccc2F)CC1,0.74,0.1,.,.,.,1,-2,.,.,2.0
O=C(COc1ccc(S(=O)(=O)N2CCOCC2)cc1Cl)NCCCn1ccnc1,0.67,0.3,6,9,1.0,-6,-7,-31,i,6.0
CN1CCCN(S(=O)(=O)c2cccc(C#N)c2)CC1,0.66,-0.8,10,10,1.7,1,0,3.6,i,3.1
Cc1ccc([C@H]2C(C(=O)O)=C[C@@H](CC3CCCC3)N2S(=O)(=O)c2ccc(C)cc2)cc1,0.69,.,-29,-39,2.3,.,.,1.3,i,1.7
Cc1ccc2[nH]c3c(=O)[nH]ncc3c2c1,0.65,-0.1,5,11,-0.2,-1,-8,-1.0,i,-16
O=C(O)c1cccc(NC(=O)C2CCCO2)c1 (stereo not given),0.61,-0.2,.,.,.,-1,-1,.,.,1.0
Cc1ccc2c(c1)N(CC(=O)OC(CC(C)C)C(=O)NC1CCCC1)C(=O)CO2 (stereo not given),0.73,0.3,.,.,.,4,19,.,.,-0.5
CN=C1c2cc3c(Br)c(OC)ccc3n2CCN1C,0.7,0.0,-13,-13,-1.1,1,-5,4.0,i,5.8
O=C1CC(=C(c2ccccc2)c2ccccc2)C(=O)N1CCN1CCN(c2cccc(Cl)c2)CC1,0.79,0.2,.,.,.,3,-10,.,.,0.9
Cc1onc(-c2c(F)cccc2Cl)c1C(=O)N1CCN(c2ncccn2)CC1,0.67,0.2,11,1,0.4,-2,9,-1.4,.,-2.7
O=c1c2c(n3nnnc3n1-c1ccccc1)-c1ccccc1CC21CCCC1,0.8,0.8,.,.,.,2,13,.,.,0.8
CC(Oc1ccc(Cl)cc1Cl)C(=O)NCCCCc1ccccc1 (stereo not given),0.67,0.3,.,.,.,-9,-9,.,.,3.5
CCCCC(=O)OCC(=O)Nc1cccc(S(=O)(=O)NC2=NCCCCC2)c1,0.62,0.3,14,6,4.4,-6,-21,-0.6,i,-1.2
CCOC(=O)c1c(C)[nH]c(C(=O)/C(C#N)=C/c2ccc(OCC)cc2)c1C,0.65,0.0,.,.,.,-8,-20,.,.,4.4
CCC(C)(C)NC(=O)C(c1ccccc1Cl)N(C(=O)CCC(=O)Nc1cc(C)on1)C(C)(C)C (stereo not given),0.65,-0.4,-3,-14,-2.0,3,11,-4.1,i,1.0
Cn1c(=O)oc2cc(C(=O)c3ccccc3)ccc21,0.73,-0.7,.,.,.,-7,2,.,.,4.5
Cc1onc(-c2ccccc2)c1C(=O)N/N=C/c1ccc(Br)cc1,.,0.5,-4,-13,4.9,4,-4,4.2,i,.
O=C(CCCl)N(Cc1nc2ccccc2c(=O)[nH]1)Cc1cccs1,0.72,-0.1,7,1,0.5,2,-12,0.8,i,1.1
Cc1ccc(-c2nnc(/C=C/c3ccccc3)o2)cc1,0.71,-0.2,.,.,.,-1,?,1.5,i,-7.9
COCCNC(=O)CCC1CCN(Cc2cccc(-c3ccc(C)o3)c2)CC1,0.62,0.2,24,19,6.3,.,5,7.1,i,-1.2
CCCOC(=O)c1ccc(NC(=O)C(=O)NCCN(CC)CC)cc1,0.69,0.2,10,2,-0.2,-9,-6,-5.2,i,5.9
CN(CCO)c1ncnc2c1sc1nc(N3CCOCC3)c3c(c12)CCC3,0.64,0.5,-1,4,0.5,-6,-17,0.5,i,-8.5
O=C(O)c1ccc2c(c1)C(=O)N(NC(=O)c1ccc(O)cc1)C2=O,0.66,0.3,.,.,.,.,-9,.,.,7.3
O=C1CCN(C(=O)Nc2ccccc2Cl)N1,0.65,0.1,.,.,.,2,-11,.,.,1.5
CN(C)C(=O)/C(=C\c1ccc(-c2cccc([N+](=O)[O-])c2)o1)NC(=O)c1ccccc1,0.67,0.6,8,6,-2.1,11,11,1.1,i,15
Cc1nn(-c2ccc(N3CCCCC3)nn2)c(C)c1CCC(=O)Nc1cccc(F)c1,0.69,-3.1,-13,-20,-12,1,0,2.5,i,2.0
Nc1nnn(-c2ccccc2)c1-c1ccccc1,0.67,-0.2,6,-12,-0.9,-4,-20,-2.7,i,0.3
CCOC(=O)CN1C(=O)N[C@@H](c2ccccc2)[C@H](C(C)=O)[C@H]1C,.,0.5,6,23,1.9,-8,3,3.0,i,2.6
CC(C)OC(=O)/C(C#N)=C/c1cn(C)c2ccccc12,0.67,0.4,.,.,.,-1,2,17,i,1.7
CCOC(=O)CNC(=O)CSc1nnc(-c2cccc(OC)c2)n1CC,0.76,0.3,.,.,.,3,.,.,.,4.2
COc1ccc(CC(=O)NCc2n[nH]c(=S)n2-c2ccccc2)cc1,0.64,0.1,9,5,-3.4,-4,2,-5.5,i,-1.1
O=C(Cn1ccc2ccccc2c1=O)N1CCN(c2cccc(Cl)c2)CC1,0.79,0.1,.,.,.,-2,18,.,.,-0.9
CC(O)c1cc2c(cc1NC(=O)c1cnn3c1NC(c1ccco1)CC3C(F)(F)F)OCO2 (stereo not given),0.79,-0.4,.,.,.,-1,12,.,.,1.9
Cc1ccnc2nc(C(=O)Nc3nnc(-c4ccc(Cl)cc4)o3)nn12,0.71,-1.1,2,10,-2.2,2,-33,0.0,i,3.6
O=C(NCCc1nc2ccccc2[nH]1)c1ccc(Br)o1,0.68,0.0,-3,-11,0.3,-1,35,0.0,i,0.8
c1ccc(CSc2nnnn2-c2ccc3c(c2)OCCO3)nc1,0.7,-0.4,.,.,.,2,-13,.,.,0.7

# Full records, looked up by structure:
# Cc1ccc(-c2nnc(/C=C/c3ccccc3)o2)cc1 as listed: Ecoli growth = 0.71; A1 inh = -0.2; Ecoli rRNA inh = .; Ecoli rRNA inh OD600 = .; Ecoli rRNA inh RFP = .; Beta apoptosis = -1; T cruzi repl = ?; MLL AF4-AF9 inh = 1.5; FGF22 binding = i; UCH37 inh = -7.9
# O=C(O)c1cc(NC(=O)c2ccco2)cc(NC(=O)c2ccco2)c1 as listed: Ecoli growth = 0.67; A1 inh = 0.5; Ecoli rRNA inh = -1; Ecoli rRNA inh OD600 = 3; Ecoli rRNA inh RFP = 1.1; Beta apoptosis = -5; T cruzi repl = 1; MLL AF4-AF9 inh = -9.0; FGF22 binding = i; UCH37 inh = 2.8

# The list continues.
SMILES,Ecoli growth,A1 inh,Ecoli rRNA inh,Ecoli rRNA inh OD600,Ecoli rRNA inh RFP,Beta apoptosis,T cruzi repl,MLL AF4-AF9 inh,FGF22 binding,UCH37 inh
COc1ccc(CNC(=O)C(c2ccco2)N(C(=O)c2snc(C(N)=O)c2N)c2ccccc2OC)cc1 (stereo not given),0.64,0.0,-2,0,0.5,3,16,-0.8,i,-267
CCCN(CCC)CCCNC(=O)c1cn(-c2ccc(OC)cc2)c(=O)c2ccccc12,0.69,0.3,-4,5,-1.9,-8,-3,0.5,i,3.9
CCC(=O)N1CCc2cc(S(=O)(=O)NC(Cc3ccccc3)C(=O)O)ccc21 (stereo not given),0.66,-0.8,6,9,2.6,-3,-11,-3.7,i,-1.0
COc1cccc(NC(=O)COC(=O)C2CC3CCCC(C2)C3=O)c1 (stereo not given),0.63,0.9,7,13,3.2,-3,.,4.2,i,-0.6
C=CCN1C(c2ccc(OCC)cc2)=CS/C1=C(\C#N)c1nnc2n1CCCCC2,0.7,0.0,-38,-31,-0.9,-1,13,.,.,8.9
COc1ccc(-c2cc3nc4n(c(=O)c3s2)CCCCC4)cc1,0.7,-3.2,-11,8,-2.3,-1,3,.,i,-152
CC[C@@]1(C(=O)OC)N[C@H](CN(C)C(=O)c2ccc(C(C)(C)C)cc2)[C@@H]2C(=O)N(Cc3ccccc3)C(=O)[C@@H]21,0.7,.,19,11,0.5,.,.,0.8,i,1.6
O=C(CSc1nc2ccccc2c(=O)[nH]1)Nc1ccccc1C(F)(F)F,0.67,0.1,-12,-12,-1.1,13,-8,-0.9,i,-0.2
COC(=O)c1sccc1NC(=O)/C=C/c1c(Cl)cccc1Cl,0.81,-0.1,.,.,.,14,7,.,.,-13
CCOC(=O)c1c(S(=O)(=O)NC2CCN(C(=O)OCC)CC2)c(C)n(C)c1C,0.7,1.3,7,10,-0.8,-2,-1,1.8,i,0.0
O=C(Nc1ccc(-c2nc3ccccc3o2)cc1)c1ccc(N2CCOCC2)c([N+](=O)[O-])c1,0.72,-1.4,18,15,3.1,99*,57*,-4.8,i,2.5
Clc1ccc(-c2n[nH]c3c2CCC3)cc1Cl,0.64,-0.5,.,.,.,2,-1,.,.,0.9
Cc1cc(/C=C2\SC(=S)N(C)C2=O)c(C)n1-c1ccc(O)cc1,0.7,-2.9,-37,-66,-10.0,-5,2,3.3,.,5.2
Cc1ccccc1N(C(=O)c1snc(C(N)=O)c1N)C(C(=O)NCc1ccccc1)c1ccc(O)cc1 (stereo not given),0.7,0.3,-3,-26,0.4,7,6,-1.0,i,-88
CN(CC(=O)NCCN1CCOCC1)S(=O)(=O)c1ccc(F)cc1,0.68,1.2,9,13,1.7,0,0,3.0,.,3.2
N[C@@H](Cc1ccccc1)C(=O)N1CCOCC1,.,0.6,4,-6,3.2,-1,-21,-1.8,i,1.7
C[C@H](CO)N1C[C@H](C)[C@@H](CN(C)Cc2ccccc2)Oc2c(NS(=O)(=O)c3ccc(F)cc3)cccc2C1=O,0.78,0.7,1&3,5&6,2.1&2.3,-2,.,-5.1&-35,i,3.4

# An excerpt; the hit share may differ from the screen's.
